Bioassay records as filed in PubChem.
hNpr1 antagonist = antagonists of human natriuretic peptide receptor Npr1 | P16066 | HEK293 hNpr1 GloSensor cGMP, ANP-stimulated luminescence | Potency, µM (doses to about 46.3 µM), for inactives: at the highest dose activity change, negative = inhibition, most hits filed as inhibitors | 1.6% of 76,000 active | AID 1347048; active = well fitted inhibition curve with a large enough effect; inconclusive = small, poorly fitted or top-dose-only effect; inactive = no such curve, though single readings can be large or run the other way;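 also: nearly all actives have a fitted effect of over 60% in size; nearly all hits also lower the signal before the agonist is added; a reference antagonist and vehicle were the controls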
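Compound pre-incubated 30 min at room temperature on GloSensor-loaded HEK293 cells stably carrying hNpr1 and the pGS-40F cGMP biosensor. Stimulation uses hNppA at 0.1 nM final; luminescence is taken at baseline and 20 min post-agonist.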
Starred values were filed as active, the others as inactive. % is scaled to controls: 0 for no effect and ±100 for the full control effect; potency is read from the fitted curve at half-maximal effect.

SMILES	hNpr1 antagonist
CCC(=O)N(C1CCOCC1)C1CCN(Cc2ccc(C)cc2C)CC1	-2%
O=C1CCCCC(Cc2ccccc2)(C(=O)NCc2ccc(Cl)cc2)N1 (stereo not given)	-4%
O=C(NC1CCN(c2cc(-c3ccc(Cl)cc3)[nH]n2)C1)c1ccncc1 (stereo not given)	-20%
CN1C(=O)C2(CCN(C(=O)c3cccc(F)c3)C2)c2ccccc21 (stereo not given)	1%
Cc1ccc(C2=NC3(CCN(C(=O)c4cnccn4)CC3)ON2)cc1	3%
O=C([C@@H]1C[C@H](F)CN1S(=O)(=O)c1ccc(C(F)(F)F)cc1)N1CCCCC1	-3%

3 entries already listed, ordered by the value under hNpr1 antagonist, high to low:
SMILES	hNpr1 antagonist
O=C([C@@H]1C[C@H](F)CN1S(=O)(=O)c1ccc(C(F)(F)F)cc1)N1CCCCC1	-3%
O=C1CCCCC(Cc2ccccc2)(C(=O)NCc2ccc(Cl)cc2)N1 (stereo not given)	-4%
O=C(NC1CCN(c2cc(-c3ccc(Cl)cc3)[nH]n2)C1)c1ccncc1 (stereo not given)	-20%

Structures shown so far that contain a carbonyl joined to an NH by a bond outside any ring, in the order listed:
SMILES	hNpr1 antagonist
O=C1CCCCC(Cc2ccccc2)(C(=O)NCc2ccc(Cl)cc2)N1 (stereo not given)	-4%
O=C(NC1CCN(c2cc(-c3ccc(Cl)cc3)[nH]n2)C1)c1ccncc1 (stereo not given)	-20%

These rows are one share of the data, so the mix of outcomes need not match the whole.
